Source: PubChem BioAssay (several laboratories)
Mtb growth: M. tuberculosis H37Rv growth inhibitors, H37Rv strain (AID 1626); M. tuberculosis H37Rv growth inhibition; higher % means a stronger effect; one-dose inhibition, % at 10 µM; IC50 in µM for titrated hits; actives 0.95% (n = 220,000);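 active = confirmed in a dose series; inconclusive = inhibition above 80% but not taken into the dose series; inactive = below 80% or under 30% at every dose of the series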;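 note: bacteria incubated seven days before Alamar blue readout; 0% = bacteria only wells and 100% = bacteria with antibiotic wells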
YopH inh: YopH (Yersinia) phosphatase inhibition. inhibition, %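 (about 10 µM by stock and volumes)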. fluorescence Ex485/Em525. actives 0.16% (n = 140,000). AID 898;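 active = inhibition of 50% or more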;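 note: controls were vehicle for no effect and minimum signal wells for full effect; inactives centre near -20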
Arbovirus inh: blocks arbovirus infection. inhibition, % at 10 µM. actives 0.37% (n = 200,000). arbovirus infection cell-based antiviral screen;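 active = inhibition from about 30%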;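 note: bluetongue infection of BSR cells; cell survival read as ATP light after 72 h; 0% = infected wells without compound and 100% = uninfected wells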
RecA splice inh: inhibitors of M. tuberculosis RecA intein splicing | P9WHJ3 | cell-free RecA intein splicing, fluorescence | inhibition, %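 (about 9 µM by stock and volumes)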 | actives 0.75% (n = 290,000) | AID 2221; in the data active = inhibition above about 30%; inconclusive = no clear call, values can overlap the other calls;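 note: 0% = vehicle wells and 100% = reference inhibitor control wells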
Target sequence (P9WHJ3 whole entry, looked up, canonical isoform): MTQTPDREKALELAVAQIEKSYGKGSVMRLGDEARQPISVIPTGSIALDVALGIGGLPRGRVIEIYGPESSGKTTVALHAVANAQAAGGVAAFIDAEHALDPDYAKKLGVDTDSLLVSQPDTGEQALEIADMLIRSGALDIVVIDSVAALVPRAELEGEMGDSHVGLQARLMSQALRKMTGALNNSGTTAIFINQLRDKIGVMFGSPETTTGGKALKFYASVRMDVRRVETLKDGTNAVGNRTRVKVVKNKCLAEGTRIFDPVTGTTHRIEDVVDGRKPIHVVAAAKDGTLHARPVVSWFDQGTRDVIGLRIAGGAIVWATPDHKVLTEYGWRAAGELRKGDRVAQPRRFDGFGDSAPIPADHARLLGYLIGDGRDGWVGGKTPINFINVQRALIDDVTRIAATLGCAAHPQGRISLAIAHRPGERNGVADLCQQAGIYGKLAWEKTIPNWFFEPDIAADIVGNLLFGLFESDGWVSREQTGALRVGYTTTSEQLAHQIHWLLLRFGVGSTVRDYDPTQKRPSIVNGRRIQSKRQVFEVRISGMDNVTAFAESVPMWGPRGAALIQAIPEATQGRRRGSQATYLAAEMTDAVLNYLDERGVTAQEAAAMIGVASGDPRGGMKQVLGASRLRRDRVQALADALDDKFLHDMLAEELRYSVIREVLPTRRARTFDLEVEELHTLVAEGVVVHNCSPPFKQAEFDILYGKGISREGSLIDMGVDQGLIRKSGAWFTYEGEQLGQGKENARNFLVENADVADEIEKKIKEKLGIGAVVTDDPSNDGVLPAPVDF
Mtb bLac sens: beta-lactam sensitization of Mtb H37Rv. M. tuberculosis H37Rv growth with meropenem, percent inhibition; hits of this screen are not shown here. actives 0.27% (n = 330,000). AID 434955. inhibition, % at 25 µM;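 active = about 74% or more and at least 40 points above the plate without the antibiotic, then above 30% in a dose series; inconclusive = first-round hits that could not be retested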;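 note: growth measured after seven days incubation then overnight dye step; 0% = bacteria only wells and 100% = bacteria with antibiotic; twin plates without the antibiotic show which effects depend on it; some results filed as inactive read as strong as hits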
Arbovirus inh repeat: recorded beside Arbovirus inh, whose call it bears; inhibition, %; measured here: 10K subset replicate screen; many hits read low in the repeat;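 first of two repeat runs on a subset; 0% = infected and 100% = uninfected wells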
* hit, by the source's call; ? = inconclusive; / = not tested or not shown. Some of the compounds tested (hit frequency here may not be typical).

SMILES	Mtb growth	YopH inh	Arbovirus inh	RecA splice inh	Mtb bLac sens	others
Fc1cccc(NC(=S)N2CCc3ccccc32)c1	/	/	/	0.8	1
C[n+]1ccccc1/C=C/c1ccc(F)c(F)c1	/	/	/	2.7	3
CC12CCC(=O)N1C(C(=O)OCC(=O)Nc1ccc(Cl)c(Cl)c1)CS2 (stereo unspecified)	5%	/	2	2.7	-4
Cc1ccc(Sc2nc(C)cc(C)c2S(C)(=O)=O)cc1	8%	-15	-1	-2.7	-22
Cc1nc(CSc2nsc(/C=C/N(C)C)c2C#N)cs1	/	/	-2	7.0	/
O=C(NNC(=O)c1c(F)cccc1F)c1ccccc1-n1cccc1	3%	/	6	0.2	6
NC(=O)c1ccsc1NC(=O)COC(=O)Cc1cccc2ccccc12	-7%	-2	-8	2.5	-4
Cc1ccc(C)c(OCCC(=O)OCC(=O)NC(=O)NCc2ccccc2)c1	/	/	/	-0.7	2
O=C(CN1CCN(c2ccccc2O)CC1)NC(c1ccccc1)c1ccccc1	8%	-1	5	9.2	1
O=[N+]([O-])c1ccc(CN2CC=C(c3ccccc3)CC2)cc1	/	/	/	2.8	2
Cc1ccnc(NS(=O)(=O)c2ccc(Cl)nc2)c1	-4%	/	/	-1.4	-6
Cc1ccc(Nc2c([N+](=O)[O-])c(=O)n(C)c3ccccc23)cc1C	-1%	-14	2	1.4	?
CCOC(=O)c1nn(C23CC4CC(CC(C4)C2)C3)c2c1C(=O)N(c1ccc(C)cc1)C2=O	-7%	-3	8	-1.8	-14
Cc1ccc(CNC(=O)c2cn(C3CCCC3)c(=O)c3c2c2ccccc2n3C)o1	/	-3	-1	8.3	-3
COc1cc(OC)c(Cl)cc1N	64%	28	-4	0.2	77	Arbovirus inh repeat=-1
CCOC(=O)c1c(C)n(C)c2ccc(OCC(O)CN3CCC(C)CC3)cc12 (stereo unspecified)	2%	-21	-2	1.1	0	Arbovirus inh repeat=-12
Cc1cccc(OCC(=O)NNC(=O)C2CCCCC2C(=O)O)c1 (stereo unspecified)	-3%	-14	6	1.3	-5
CCOC(=O)C1=C(O)C(=O)N(c2ccccc2)C1c1cccc([N+](=O)[O-])c1 (stereo unspecified)	0%	/	/	-1.6	1
O=C(CSc1nc2c(c(=O)[nH]1)CCC2)Nc1cccc(F)c1	/	/	/	-1.1	6
COc1ccc(C(=O)NC2CCCCCC2)cc1S(=O)(=O)N1CCOCC1	/	/	/	-0.2	-15
O=C(c1ccc(N2CCNCC2)cc1)c1cccnc1	4%	-15	-2	-16	-8
CCCCN1C(=O)/C(=C(/C#N)C(N)=O)c2ccccc21	-24%	-2	-13	1.8	2
CC(=O)Nc1ccc(NC(=O)/C(Cl)=C/c2ccccc2)cc1	43%	-20	3	0.8	44
CC(=O)c1cccc(NC(=O)C2CCN(S(=O)(=O)c3cccs3)CC2)c1	/	17	-3	0.7	-1
CC1CN/C(=C\C(=O)c2ccc(Cl)cc2)C(=O)N1 (stereo unspecified)	2%	-39	-9	3.7	3
Cc1cccc(NC(=O)[C@@H](NC(=O)[C@@H]2Cc3ccccc3CN2)C(C)C)c1	/	/	/	0.0	-11
Cc1ccc(CN2CCN(C/C=C/c3ccc(F)cc3)CC2CCO)o1 (stereo unspecified)	0%	/	-3	-2.9	-3
CCOC(=O)c1ccc(S(=O)(=O)NCC(C)(C)N2CCOCC2)cc1	0%	/	2	-4.5	-3
CNC(=O)CSc1cnc2ccccc2n1	0%	/	11	-3.4	-6
CCC(C)(C)NC(=O)CCCSc1nc2ccccc2[nH]1	-6%	/	/	1.1	-10
Cc1ccc(C(=O)C[n+]2cccc(C(N)=O)c2)cc1	-5%	/	/	1.9	1
COc1ccc(OC)c(NC(=O)CN2C(=O)CSc3ccc(S(=O)(=O)N4CCCC4)cc32)c1	/	/	/	-0.2	2
O=C(CC(c1ccccc1)c1ccccc1O)NCCN1CCOCC1 (stereo unspecified)	-5%	-17	23	/	-3	Arbovirus inh repeat=6
S=C(N/N=C/c1ccccc1)N1CCOCC1	4%	-15	-10	0.4	57
CO/N=C/c1ccc(N2CCN(C(=O)c3ccc(C)cc3)CC2)c([N+](=O)[O-])c1	5%	2	3	-2.1	77
Cc1ccc2nc(NC(=O)c3ccc(S(=O)(=O)N4CCCc5ccccc54)cc3)sc2c1	3%	-41	-12	-5.1	-13
Cc1cc(C)cc(N2C(=O)CC(Sc3ccccc3C(=O)O)C2=O)c1 (stereo unspecified)	-14%	/	/	0.8	-5
Cc1ccnc(SCc2cc(=O)c(OC(=O)c3cc([N+](=O)[O-])ccc3Cl)co2)n1	-2%	-23	-14	5.0	-1
CC(NC(=O)C1(C)CC1(Br)Br)C(C)(C)C (stereo unspecified)	-3%	-56	2	1.8	37
OCCC1CN(Cc2ccc3nsnc3c2)CCN1C1CCCCC1 (stereo unspecified)	4%	/	-5	-1.0	5
O=C(NCc1ccccc1OC(F)(F)F)C1CCC(=O)N(Cc2cccc(F)c2)C1 (stereo unspecified)	/	/	/	0.8	?
O=C(CSc1nccc(=O)[nH]1)Nc1ccc(S(=O)(=O)N2CCOCC2)cc1	-1%	-5	-1	2.3	1
Cc1ccccc1CNC(=O)/C=C\C(=O)O	8%	-8	2	-5.8	3
Cc1ccnc(NC2OC(=O)c3ccccc32)c1 (stereo unspecified)	-1%	2	8	-2.8	-5
Cc1ccc2cc(C#N)c(N3CCN(C)CC3)nc2c1	2%	-13	-6	-1.9	-8
CC(C)=CCN1CCN(Cc2nc(-c3ccc(F)cc3)cs2)CC1CCO (stereo unspecified)	-9%	/	/	0.2	-7
CCOc1cc(C2C3=C(CCCC3=O)Nc3ccc4ncccc4c32)ccc1O (stereo unspecified)	1%	/	18	17	3
Nc1nc(-c2cccnc2)nn1C(=O)c1ccc(F)cc1	-1%	/	5	24	/
O=C(CN1C(=O)C2CC=CCC2C1=O)NCC1COc2ccccc2O1 (stereo unspecified)	-7%	-29	-2	-2.2	-4
CC(=O)c1c(C)nn(-c2ccccc2)c1C	-6%	/	/	0.4	-4
CCn1cc(/C=N\NC(=O)c2ccc(F)cc2)cn1	4%	-26	4	1.7	2
Cn1ccnc1C1CCCCN1C(=O)c1cc(COc2ccc(F)cc2Cl)on1 (stereo unspecified)	-3%	/	4	3.9	17
COc1ccc(OC)c(CCNC(=O)c2ccc(CS(=O)Cc3ccc(Cl)cc3)o2)c1 (stereo unspecified)	/	/	/	5.9	-9
Cc1ccc(CCNC(=O)C2CCCN(S(=O)(=O)c3c(C)nn(C)c3C)C2)cc1 (stereo unspecified)	-7%	-9	-1	1.0	-8
CN=C1C([N+](=O)[O-])=CC=C2C1=NC1(CCCCC1)N2O	5%	-13	-12	-2.8	6
CC(CC(F)(F)F)N1CCC(n2nccc2NC(=O)CCOc2ccccc2)CC1 (stereo unspecified)	/	/	/	-2.1	5
Cc1nc2ccccc2c(=O)n1NC(=O)c1ccccc1Cl	-10%	-40	2	-0.6	-4
COc1ccc(OCCCC(=O)OCC(=O)Nc2ccc(Cl)cn2)cc1	/	/	/	1.1	0
CSc1ccc(C(=O)C2CCCN(C(=O)Cn3cnnn3)C2)cc1 (stereo unspecified)	/	/	/	-0.5	-9
COc1ccc(N(C(=O)c2snc(C(N)=O)c2N)C(C(=O)NCc2ccc(F)cc2)c2ccc(C)o2)c(OC)c1 (stereo unspecified)	/	/	/	0.7	-3
(next part)
SMILES	Mtb growth	YopH inh	Arbovirus inh	RecA splice inh	Mtb bLac sens	others
COC(=O)c1cc(OC)c(OC)cc1NC(=O)Cn1nnc(-c2ccccc2Cl)n1	-3%	5	-7	1.3	-4
Cc1cc(C)nc(NC2=NCC(=O)N2c2cccc(Cl)c2)n1	-10%	-5	-7	0.8	19
Cc1c(NC(=O)C(C)Sc2n[nH]c(N)n2)c(=O)n(-c2ccccc2)n1C (stereo unspecified)	-6%	-3	3	0.6	-5
NC(=O)c1cc(S(=O)(=O)NC2CCCCC2)co1	-3%	-39	-3	2.6	-4
COCC1CCN(C(=O)c2ccc(OC3CCN(Cc4ccccn4)CC3)cc2)C1 (stereo unspecified)	/	/	/	-2.0	-1
CC(C)CN(C(=O)c1cccc(S(=O)(=O)N2CCCCC2)c1)C1CCS(=O)(=O)C1 (stereo unspecified)	/	/	/	2.0	-4
O=C(OCC#CCSc1nnc(-c2cccc3ccccc23)o1)c1cccs1	61%	-40	14	3.4	84
CC(C)NC(=O)c1ccc(CN2CCC(Cc3ccccc3)CC2)cc1	/	/	/	-3.7	0
Cc1nnc2c(N3CCN(CCO)CC3)nc3ccccc3n12	/	/	/	-0.6	-3
Cc1ccc(-c2ccc(/C=N\NC(=O)c3cc4c(ccc5ccccc54)o3)o2)cc1[N+](=O)[O-]	/	1	-46	1.2	2
COc1ccc(N(C)C(=O)c2cc3c(Cl)nc4ccccc4c3s2)cc1	7%	-12	3	0.1	0
CCCN1CCC(=NNC(=O)CSc2cc(C)c(Br)cc2C)CC1	6%	-9	-17	5.6	-3
O=C(CC1SCCNC1=O)Nc1cccc(Cl)c1 (stereo unspecified)	-3%	-35	3	/	-1
Cc1c(O)cc2n(c1=O)-c1ccccc1C2(C)C	-4%	-28	2	/	-5
COC(=O)c1c2[n+](cc3cc(OC)c(OC)cc13)CCc1cc(OC)c(OC)cc1-2	/	/	/	-5.3	0
COc1cc(C(c2oc(CO)cc(=O)c2O)c2oc(CO)cc(=O)c2O)cc(OC)c1OC	1%	/	-1	-0.1	-1
O=C(c1cccs1)N1CCN(Cc2ccccc2)CC1	5%	-21	-3	2.6	-3
C/C(=N\NC(=S)NCc1ccccc1)c1ccco1	?	/	-4	-0.5	93
Cc1sc2ncn(CC(=O)N(C)C3CCCCC3)c(=O)c2c1C	/	/	/	-1.5	-9
CN1CCN(C(=O)c2cn(C)c3ccc(S(=O)(=O)N(C)C4CCCCC4)cc3c2=O)CC1	-1%	-1	6	/	4	Arbovirus inh repeat=-1

Quoted at random: 4 entries already listed
SMILES	Mtb growth	YopH inh	Arbovirus inh	RecA splice inh	Mtb bLac sens	others
Cc1ccccc1CNC(=O)/C=C\C(=O)O	8%	-8	2	-5.8	3
CC(NC(=O)C1(C)CC1(Br)Br)C(C)(C)C (stereo unspecified)	-3%	-56	2	1.8	37
CN1CCN(C(=O)c2cn(C)c3ccc(S(=O)(=O)N(C)C4CCCCC4)cc3c2=O)CC1	-1%	-1	6	/	4	Arbovirus inh repeat=-1
CC(=O)c1cccc(NC(=O)C2CCN(S(=O)(=O)c3cccs3)CC2)c1	/	17	-3	0.7	-1

(listing goes on)
SMILES	Mtb growth	YopH inh	Arbovirus inh	RecA splice inh	Mtb bLac sens	others
O=C(Cc1ccc(S(=O)(=O)N2CCCC2)s1)N1CCN(c2ccc(F)cc2)CC1	-7%	/	7	-4.3	-8
COc1cccc(N=Nc2c(=O)[nH]n3c(=O)c4c([nH]c23)CCC4)c1	6%	-37	9	11	81
CCS(=O)(=O)c1nc(S(=O)(=O)c2ccc(Cl)cc2)c(N2CCc3ccccc3C2)s1	-2%	-25	5	-0.3	-8
Cc1cccc(N(C(=O)c2snc(C(N)=O)c2N)C(C(=O)NC2CCCC2)c2ccc(C)o2)c1 (stereo unspecified)	/	/	/	-1.0	1
CCOc1nc(-c2ccccc2)ccc1-c1noc(-c2ccncc2)n1	7%	-11	-1	-2.6	35
Cc1ccc(NC(=S)N(Cc2ccccc2)C(C)C)cc1	-1%	/	/	1.4	-1
CC1CCCN(C(=O)COC(=O)C2CCN(S(=O)(=O)c3c(Cl)cccc3Cl)CC2)C1 (stereo unspecified)	/	/	/	-0.5	-2
CC(C)(O)C#Cc1ncc(C(F)(F)F)cc1Cl	0%	/	10	1.2	5
COc1ccc(CCNC(=O)CSCc2n[nH]c(=O)[nH]2)cc1OC	-5%	17	5	-1.4	-4
Cc1cc(/C=C2/NC(=O)N(c3ccccc3)C2=O)c(C)n1C(C)C	1%	0	22	-2.5	6
COc1ccc(-c2c(NC(=O)c3ccco3)oc3ccccc3c2=O)cc1	/	/	/	-4.3	8
COc1ccc(/C=C/C(=O)NC2CCCCCCC2)cc1S(=O)(=O)N1CCOCC1	6%	-4	-25	3.4	3
O=C(CC1C(=O)NCCN1Cc1cccc(C(F)(F)F)c1)NCCc1cnccn1 (stereo unspecified)	/	/	/	-0.9	-3
O=C(NC1CCS(=O)(=O)C1)c1ccc(Br)o1 (stereo unspecified)	/	/	/	1.6	-6
COc1cc(C(=O)NCC(=O)N/N=C/c2cccc(OC(=O)c3ccco3)c2)cc(OC)c1OC	-2%	/	-1	39*	-1

Not a retest: an excerpt of the list.
SMILES	Mtb growth	YopH inh	Arbovirus inh	RecA splice inh	Mtb bLac sens	others
O=C(CC1C(=O)NCCN1Cc1cccc(C(F)(F)F)c1)NCCc1cnccn1 (stereo unspecified)	/	/	/	-0.9	-3
O=C(NC1CCS(=O)(=O)C1)c1ccc(Br)o1 (stereo unspecified)	/	/	/	1.6	-6
